NPR1 antag – human Npr1 receptor antagonism. P16066. HEK293 hNpr1 GloSensor cGMP, ANP-stimulated luminescence. Potency, µM (top dose mostly 46.3 µM), for inactives: at the top dose activity change, negative = inhibition, most hits filed as inhibitors. hit rate 1.6% among 76,000; active = well fitted inhibition curve with a large enough effect; inconclusive = small, poorly fitted or top-dose-only effect; inactive = no such curve, though single readings can be large or run the other way;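 also: nearly all actives have a fitted effect of over 60% in size; nearly all hits also lower the signal before the agonist is added; a reference antagonist and vehicle were the controls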
Target sequence (P16066 whole entry, looked up): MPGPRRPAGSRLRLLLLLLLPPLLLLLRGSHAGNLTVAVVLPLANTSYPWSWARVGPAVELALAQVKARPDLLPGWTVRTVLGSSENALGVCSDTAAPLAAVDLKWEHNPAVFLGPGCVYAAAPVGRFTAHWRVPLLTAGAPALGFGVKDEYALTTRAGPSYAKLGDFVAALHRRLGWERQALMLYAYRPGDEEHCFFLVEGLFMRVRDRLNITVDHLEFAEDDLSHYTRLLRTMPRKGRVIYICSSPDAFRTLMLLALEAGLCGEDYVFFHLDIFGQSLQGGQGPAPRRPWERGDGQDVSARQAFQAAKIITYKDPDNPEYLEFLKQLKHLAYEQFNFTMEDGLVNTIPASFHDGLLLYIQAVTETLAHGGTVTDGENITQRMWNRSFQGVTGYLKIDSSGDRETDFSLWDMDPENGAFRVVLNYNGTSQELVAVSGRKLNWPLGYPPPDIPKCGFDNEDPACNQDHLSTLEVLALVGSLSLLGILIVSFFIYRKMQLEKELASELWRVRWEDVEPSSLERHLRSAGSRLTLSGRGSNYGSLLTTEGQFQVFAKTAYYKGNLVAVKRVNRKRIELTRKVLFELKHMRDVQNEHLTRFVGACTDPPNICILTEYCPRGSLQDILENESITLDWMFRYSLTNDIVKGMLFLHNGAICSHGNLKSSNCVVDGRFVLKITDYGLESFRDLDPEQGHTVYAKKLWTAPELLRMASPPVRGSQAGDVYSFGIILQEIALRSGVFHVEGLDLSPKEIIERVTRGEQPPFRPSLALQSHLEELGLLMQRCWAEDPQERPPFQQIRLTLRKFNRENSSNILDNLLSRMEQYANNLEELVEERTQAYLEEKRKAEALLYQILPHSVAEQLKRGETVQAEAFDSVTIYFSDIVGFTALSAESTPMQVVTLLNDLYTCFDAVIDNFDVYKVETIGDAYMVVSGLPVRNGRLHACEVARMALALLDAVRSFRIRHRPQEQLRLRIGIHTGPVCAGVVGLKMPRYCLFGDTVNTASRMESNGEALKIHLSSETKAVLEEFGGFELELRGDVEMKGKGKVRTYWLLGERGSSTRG
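HEK293 cells stably expressing human Npr1 and cGMP GloSensor pGS-40F, loaded 2 h with 2% GloSensor reagent, given compound 30 min at room temperature. Luminescence read before and 20 min after 0.1 nM hNppA.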
* = called active by the depositor; u = inconclusive; & = joins results of further samples; [ ] = remark or other dose. % is scaled to controls: 0 for no effect and ±100 for the full control effect; potency is read from the fitted curve at half-maximal effect.

entry	SMILES	NPR1 antag
1	COc1ccccc1NC(=O)N1C[C@@H]2C[C@H](C1)c1c(/C=C/c3ccc(Cl)cc3)ccc(=O)n1C2	4%
2	Cc1ccc(C(=O)N2CCC(CCC(=O)N(C)CCc3c(C)nn(C)c3C)CC2)cc1	1%
3	COc1cccc(CCC(=O)N2CCC(C3CCN(S(C)(=O)=O)CC3)C2)c1 (stereo unspecified)	5%
4	O[C@H]1[C@H](NCc2ccc(-c3ccccc3)cc2)[C@H]2CO[C@H](O2)[C@@H]1Sc1ccccc1	u
5	O=C(CSc1ccccn1)N[C@@H]1COCC[C@@H]1Oc1cccc(F)c1	2%
6	O=C(NCc1ccccc1)C1CCC(=O)N1C1CCN(C(=O)c2cc(F)cc(F)c2)CC1 (stereo unspecified)	0%
7	CCn1cc(C(=O)N2CCn3nc(C(=O)Nc4ccccc4)cc3C2)c(C)n1	-1%
8	Cc1oc(-c2cccc(F)c2F)nc1CN(C)Cc1ccc(C(F)(F)F)cc1	4%
9	CCCN(CC1CCOC1)C(=O)Nc1ccccc1OC (stereo unspecified)	-2%
10	COc1ccc(C(=O)N2CCC(n3cc(-c4nc(-c5ccccc5)no4)nn3)C2)cc1OC (stereo unspecified)	u

entry	SMILES	NPR1 antag
11	COc1ccc(-n2nc(C3CCN(Cc4cccc(OC)c4)CC3)[nH]c2=O)cc1	-5%
12	O=C(NC1CC1)C1COC2(CCN(C(=O)Cc3cccs3)CC2)N1C(=O)c1ccc(F)cc1 (stereo unspecified)	1%
13	COc1ccc(NC(=O)NCCc2noc(C3CC3)n2)cc1OC	-1%
14	O=C(Cc1ccccn1)N1CCCC(c2nn(-c3ccc(F)cc3)c(=O)[nH]2)C1 (stereo unspecified)	18%
15	O=C(NC1CCCCC1)C1CN(C(=O)c2ccncc2)CC12CCOCC2 (stereo unspecified)	1%
16	COCCNC(=O)[C@H]1C[C@H](Oc2cccnc2)CN1C(=O)c1cccc(C)c1	6%
17	O=C(Nc1ccc(-c2nnc3n2CCCC3)cc1)c1ccco1	-3%
18	O=C(O)[C@]12CCCN[C@@H]1CCN(Cc1ccsc1)C2	4%
19	CN1CC(=O)N(c2cccnc2)Cc2c1ncnc2N1CCC(O)CC1	-16%[70.6 µM]
20	Cc1cc(C(=O)N2CCC(Oc3ccccc3-c3nc(C4CC4)no3)C2)n[nH]1 (stereo unspecified)	10%

entry	SMILES	NPR1 antag
21	COc1cccc(-c2cc(-c3c(C)noc3C)cc3c2C(=O)N(C)C3)c1OC	-1%[70.6 µM]
22	CC(C)(C)CC(=O)Nc1nc2c(s1)C[C@@H]1[C@](C)(CO)[C@H](O)CC[C@@]1(C)[C@@H]2CC(=O)Nc1cccc(O)c1	-8%
23	CN(C)c1ccc(-c2ccnc(N[C@H]3CO[C@H]4[C@@H]3OC[C@H]4OC(=O)Nc3ccc(Oc4ccccc4)cc3)n2)cc1	-23%
24	O=C(C1CCCCC1)N1CCC(N2CCCC(C(=O)N3CCCC3)C2)CC1 (stereo unspecified)	8%
25	COc1ccc(CC(=O)NC2CCN(c3cc(-c4ccc(Cl)cc4)[nH]n3)CC2)cc1OC	18µM*
26	CN(CCC1CCOCC1)C(=O)c1cn(Cc2ccccc2F)nn1	23%
27	COc1cccc(C(C)N(C)C(=O)c2cc(Cn3ccnc3C(C)C)[nH]n2)c1 (stereo unspecified)	-3%
28	COCCn1c(C)cnc1CC1CCN(C(=O)CCC2CCCC2)CC1	1%
29	CC1=C[C@@H](CNS(C)(=O)=O)[C@H](C(C)C)C[C@H]1CC(=O)NC1CCCC1	0%[70.6 µM]
30	Cc1cccc(C(=O)N2C[C@@H]3CCCN4CCC[C@@H]([C@H]34)[C@H]2CCCC(=O)N2CCOCC2)c1	7%

entry	SMILES	NPR1 antag
31	O=C(Nc1ccc(-c2nnc3n2CCCC3)cc1)C1CC1	-1%
32	O=C(Nc1ccccc1F)N1CCC2(CCCN(C3CCCCC3)C2=O)C1 (stereo unspecified)	3%
33	COc1ccc(C2C(C(=O)OC(C)(C)C)=C(C)N=C3SC=C(CC(=O)NCC4CC4)N32)cc1OC (stereo unspecified)	-4%
34	Cc1noc(-c2cn(C3CCCN(C(=O)c4cccc(C(F)(F)F)c4)C3)nn2)n1 (stereo unspecified)	-2%
35	N#Cc1ccc(C(=O)NCc2nnc3ccc(-c4ccccc4)nn23)cc1	5%
36	COc1ccc(N2CC(C(=O)NCC(F)(F)F)NC2=O)cc1 (stereo unspecified)	12%[70.6 µM]
37	OC[C@@H]1O[C@H](CNCc2cccc(Cl)c2)[C@H](N2CCCC2)[C@@H]1O	-1%[70.6 µM]
38	O=C1c2c(nc(COc3cccnc3)n2Cc2ccccc2)NCCN1CCOc1ccccc1	1%
39	Cn1c(CN2CC[C@H](c3nc4ccccc4[nH]3)C2)nc2ccccc21	-15%[70.6 µM]
40	COc1ccc(C(=O)NCc2cccnc2N(C)C2CCCCC2)o1	-1%

entry	SMILES	NPR1 antag
41	O=C1CCCCC(Cc2ccccc2)(C(=O)Nc2cccc(F)c2)N1 (stereo unspecified)	-14%
42	COc1ccc(-c2cc(C(=O)NCc3cccnc3)c3c(c2)N(C)CCO3)cn1	-2%[70.6 µM]
43	FC(F)(F)c1ccc(O[C@H]2COCCN(CC3CCCC3)C2)cc1	-3%[70.6 µM]
44	Cc1cnc(C)n1CCNC(=O)c1ccsc1	2%
45	O=C(Nc1ccc(Cl)nc1)c1ccn2cncc2c1	7%[70.6 µM]
46	Cc1cc(Cn2cc3c4c(cccc42)[C@H](CC(C)C)N[C@H](C(=O)NCCN(C)C)C3)no1	6%
47	O=C(NC[C@H]1OC[C@@H](NC2CCCCC2)[C@@H]1O)N1CCOCC1	3%[70.6 µM]
48	O=C(Cc1ccc(F)cc1)N1CCC2(C1)C(=O)N(CCc1ccccc1)c1ccccc12 (stereo unspecified)	16%&-11%
49	O=C1NC2(CCN([S+](=O)([O-])c3cccc(C(F)(F)F)c3)C2)N=C1c1ccncc1 (stereo unspecified)	3%
50	COc1cccc(NC(=O)N2CCC(Oc3ncccc3C(=O)N(C)C)C2)c1 (stereo unspecified)	2%

entry	SMILES	NPR1 antag
51	CCn1cc(CN2CCC3(CC2)CC(c2ccccc2)CN3C)cn1 (stereo unspecified)	1%
52	CCn1c2c(c(=O)n1Cc1ccccc1)CCN(Cc1c[nH]c3ccccc13)C2	-1%[70.6 µM]
53	C[S+](=O)([O-])CCn1ncc2cc(OCc3cccc(-c4cccc(CO)c4)c3)ccc21	u
54	CC1=C[C@@H](CO)[C@H](C(C)C)C[C@H]1CC(=O)NCc1ccc(C(F)(F)F)cc1	0%[70.6 µM]
55	COc1ccccc1N1CCN(C(=O)c2ccc3c(c2)C(O)CCCCCN3C)CC1 (stereo unspecified)	-18%
56	COc1ccc(CN2C(=O)[C@@H]3C[C@@H](CN3C(=O)c3ccc(Cl)cc3)Oc3ccccc32)cc1	-5%
57	COCC(=O)NC1CCC12CCN(C(=O)c1ccc(C#N)cc1)CC2 (stereo unspecified)	3%
58	Cc1nc(CC(=O)N2CCC3(CCCN(Cc4ccccc4F)C3=O)C2)cs1 (stereo unspecified)	2%
59	COCCOc1ccc2c(n1)CCN(C(=O)COc1ccccc1)C2	-13%
60	Cc1cn2nnc(C(=O)NC3CCCCC3)c2c(=O)[nH]1	-1%

entry	SMILES	NPR1 antag
61	CCOCCN1C(=O)COC[C@@H]1[C@H](O)c1ccc(NC(=O)Nc2ccccc2)cc1	1%[70.6 µM]
62	O=C(c1ccc(Cl)cc1)N(CC1CCOC1)C1CC1 (stereo unspecified)	0%
63	CNC(=O)c1c(C)nc2n1CCC(Nc1ccccc1C)C2 (stereo unspecified)	1%[70.6 µM]
64	Cc1cc(C(F)(F)F)nn1CC(=O)N1CC(CO)C2(CCNCC2)C1 (stereo unspecified)	6%
65	Cc1nc([C@@H]2CN(C(=O)c3ccc(Cl)s3)C[C@H]2C(N)=O)n[nH]1	-1%
66	COc1ccc(C[C@H](NC(=O)C2=C[C@@H](NC(=O)c3ccc(C)cc3)[C@@H](O)[C@H](O)C2)C(N)=O)cc1	2%
67	CCO[C@H]1CN(C(=O)COc2ccc(-n3cnnn3)cc2)C[C@@H]1O	-1%
68	COc1cc(C(=O)NCCn2cccc2-c2nc(-c3ccccc3)no2)cc(OC)c1OC	-1%
69	O=C(c1cccc(OC2CN(Cc3nccs3)C2)c1)N1CCOCC1	9%
70	CC(C)CC(=O)N1[C@@H]2CC[C@H]1CC(NC(=O)c1ccncc1)C2 (stereo partly specified)	-1%

entry	SMILES	NPR1 antag
71	COc1cccc(CC(=O)N2CCCN(c3cc(-c4ccccc4)[nH]n3)CC2)c1	-18%
72	O=C1NCCOCCCN(C(=O)c2ccco2)[C@H]2CCCC[C@@H]12	-3%
73	COCC(=O)Nc1ccc(-c2noc([C@@H]3CCCN3Cc3cccc(C#N)c3)n2)cn1	0%[70.6 µM]
74	O=C(c1ccc(Cl)cc1)N1CC(CO)C2(CCNCC2)C1 (stereo unspecified)	1%
75	Cc1ccc(CNC(=O)c2cc3cn(C(C)C)cc3s2)cc1	-15%
76	COCC[C@]1(O)CCN(C(=O)COc2ccc3c(c2)OCO3)C[C@H]1C	11%
77	Cc1noc(C)c1C(=O)N1CCC2(CC1)CC(c1ccccc1)C(=O)N2C (stereo unspecified)	4%
78	CCCc1nc(C)cc(N2CCC3(CC2)C(C(=O)O)CC(=O)N3C)n1 (stereo unspecified)	-6%
79	CCCCc1nn(CC(=O)N2CCC(n3nc(C)cc3C)C2)c(=O)n1CC (stereo unspecified)	0%
80	O=C(NCCc1ccccn1)c1cn2ccnc(-c3ccccc3)c2n1	-9%

Reprinted at random: six records from the list
entry	SMILES	NPR1 antag
73	COCC(=O)Nc1ccc(-c2noc([C@@H]3CCCN3Cc3cccc(C#N)c3)n2)cn1	0%[70.6 µM]
77	Cc1noc(C)c1C(=O)N1CCC2(CC1)CC(c1ccccc1)C(=O)N2C (stereo unspecified)	4%
75	Cc1ccc(CNC(=O)c2cc3cn(C(C)C)cc3s2)cc1	-15%
79	CCCCc1nn(CC(=O)N2CCC(n3nc(C)cc3C)C2)c(=O)n1CC (stereo unspecified)	0%
72	O=C1NCCOCCCN(C(=O)c2ccco2)[C@H]2CCCC[C@@H]12	-3%
80	O=C(NCCc1ccccn1)c1cn2ccnc(-c3ccccc3)c2n1	-9%

Later entries
entry	SMILES	NPR1 antag
81	Cc1ccc(C(=O)N2CC(c3nnc(-c4ccncc4)o3)C3(CCOCC3)C2)c(C)c1 (stereo unspecified)	-11%
82	COCCN(Cc1cc(=O)c2cc(F)ccc2[nH]1)CC1CC1	0%
83	Cc1ccc(N2CC(c3noc(-c4cccc(Cl)c4)n3)CC2=O)cc1 (stereo unspecified)	-1%
84	COc1cccc([C@@H]2CCN(Cc3ccc(NC(C)=O)cc3)C[C@H]2O)c1	-2%
85	CCN1C(=O)C2CC3(CCN(C(=O)COCCOC)CC3)CN2C1=O (stereo unspecified)	3%
86	Cn1cc(CN2CCN(C(=O)c3ccoc3)CC2)ccc1=O	-3%
87	COc1ccc2c(c1)C=C(CN1CCC(CO)(Cc3ccccc3Cl)CC1)CO2	u
88	CC(NC(=O)c1cccc(C#N)c1)C(=O)N1CCN(c2ccccn2)CC1 (stereo unspecified)	4%
89	Cc1ccc(OCc2nc(C3CN(C(=O)c4ccc(C)nc4)C3)no2)cc1	-10%
90	O=C(C1CC(=O)N(c2n[nH]c3cccc(F)c23)C1)N1CCN(c2ccc(F)cc2)CC1 (stereo unspecified)	1%

entry	SMILES	NPR1 antag
91	Cc1ccc(-c2nnc([C@H]3CCN(Cc4ccc(S(C)(=O)=O)cc4)C3)o2)cc1	u
92	CN(C)c1ccc(CN2CCC3(C2)NC(=O)c2ccccc2O3)cc1 (stereo unspecified)	-18%[70.6 µM]
93	O=C(NCCc1cnc[nH]1)c1ccc(-c2ncc3cnc(-c4cccc(F)c4)cn23)cc1	2%[70.6 µM]
94	O=C1NCCCCCCN(C(=O)c2cccnc2)[C@H]2C[C@H](C(=O)N3CCc4ccccc4C3)C[C@@H]12	1%
95	COc1cccc(C2CCN(C(=O)c3cn(CCc4ccccc4)nn3)C2)c1OC (stereo unspecified)	0%
96	CC(=O)N1CCC(NC[C@H]2O[C@H](Cc3cc(COc4ccccc4)on3)CC[C@@H]2O)CC1	0%
97	CN(C)C(=O)C1CN(C(=O)c2ccc(C#N)cc2)CC12CCOCC2 (stereo unspecified)	-1%
98	CCn1ncc(CN2CCC3(CCC3OC)CC2)c1C (stereo unspecified)	0%
99	O=C(c1ccccc1F)N1CCC2(CC1)COc1ccccc1CN2	0%[70.6 µM]
100	COc1ccc(C(=O)NCCC2CCN(C(=O)Nc3ccc(C)c(F)c3)CC2)cc1	-25%

entry	SMILES	NPR1 antag
101	O=C(c1ccc2ncccc2c1)N1CCC2(CC1)NCCc1c2[nH]c2ccccc12	-9%
102	O=C1c2cnc(-c3ccoc3)nc2OCCN1Cc1ccc(F)cc1F	-11%[70.6 µM]
103	COC(=O)[C@@H](Cc1cccnc1)NC(=O)[C@@H]1CN(C(=O)c2cccc(F)c2)CCN1C(=O)C1CCCCC1	2%
104	O=C(CCCc1ccccc1)NCc1nnc2c(-c3nc(C4CC4)no3)cccn12	-13%
105	COC[C@H]1CCCN1C(=O)C[C@@H]1O[C@H](CNC(=O)Nc2cccc(F)c2)[C@@H](O)[C@H]1O	0%[70.6 µM]
106	CC(C)CNc1ccc2nncn2n1	9%
107	Cc1cccnc1CNC[C@H]1O[C@@H]2C[C@@H](CC(=O)NCc3nccn3C)O[C@@H]2[C@@H]1O	2%[70.6 µM]

Shown as labelled records: 2 of the compounds above
104) O=C(CCCc1ccccc1)NCc1nnc2c(-c3nc(C4CC4)no3)cccn12
- NPR1 antag: -13%
105) COC[C@H]1CCCN1C(=O)C[C@@H]1O[C@H](CNC(=O)Nc2cccc(F)c2)[C@@H](O)[C@H]1O
- NPR1 antag: 0%[70.6 µM]

High-throughput results deposited in PubChem BioAssay by National Center for Advancing Translational Sciences (NCATS).

Not all compounds are listed, so the mix of outcomes need not match the whole.
